Screens as filed in PubChem BioAssay.
CBX7 inh – blocks human CBX7 binding to H3K27me3 peptide | O95931 | AlphaScreen His6-CBX7 / biotin-H3K27me3 peptide binding; stronger effect = lower value | normalised signal (fraction of DMSO) (no concentration beside the values) | 1.1% of 66,000 active; in the data active = normalised signal below about 0.5;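 note: 100 nL library stock added to about 20 µL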
Target sequence (O95931 whole entry, looked up): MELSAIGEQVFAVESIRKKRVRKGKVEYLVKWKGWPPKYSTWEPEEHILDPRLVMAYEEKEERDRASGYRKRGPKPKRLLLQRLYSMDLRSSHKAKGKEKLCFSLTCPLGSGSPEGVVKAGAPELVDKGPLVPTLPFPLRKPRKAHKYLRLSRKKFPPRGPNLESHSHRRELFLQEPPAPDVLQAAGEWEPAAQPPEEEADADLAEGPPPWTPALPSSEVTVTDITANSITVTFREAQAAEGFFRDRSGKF
CBX7 inh z-score – second read-out of CBX7 inh, no call of its own (marks repeat the call); z-score; measured here: z-score of CBX7 signal; some inactives read as strong as hits; reference of the scale not given here;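 same signal on another scale; lower means less binding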
* marks the source's active call; other numbers are inactive results; & = joins results of further samples.

SMILES	CBX7 inh	CBX7 inh z-score
COc1ccc(C2=NN(CC(=O)Nc3cc(C)ccc3C)C(=O)CC2)cc1	1.03	0.768
CCN1C(=O)c2ccccc2S(=O)(=O)c2ccc(C(=O)NC3CCCc4ccccc43)cc21 (configuration not stated)	1.01	0.124
O=C(CCNC(=O)Cn1ccc2ccccc2c1=O)NCCC1=CCCCC1	1.02	0.484
COc1cc2ccccc2cc1C(=O)Nc1ccc2oc(-c3ccncc3)nc2c1	0.988	-0.212
CNc1oc(C)nc1S(=O)(=O)c1ccccc1	0.98	-0.252
CCCCN(CCCC)c1c(NC2CCN(C(=O)OCC)CC2)c(=O)c1=O	0.924	-0.905
O=C(Nc1ccc2oc(-c3ccccc3F)nc2c1)c1cc2ccccc2o1	1.01	0.652
CC(C)OCCCNC(=O)C1CCCN(c2nc3ccccc3[nH]2)C1 (configuration not stated)	1.13	1.53
Brc1cccc(-c2nnc3sc(CNCc4ccccc4)cn23)c1	1.09	1.11
Cc1cc(NC(=O)C2CC2)n(-c2nc3ccccc3[nH]2)n1	0.857	-1.7
Cc1ccnc(NC(=O)c2cn(C3CCCC3)c(=O)c3c2c2ccccc2n3C)c1	0.955	-1.12
COc1cccc(CNC(=O)c2cc(-c3cccs3)nc3ccccc23)c1	1.05	1.25
CC(C)NC(=O)CC1Sc2ccc(C(F)(F)F)cc2NC1=O (configuration not stated)	1.06	1.12
CCCCc1cc2c(=O)c(-c3ccccn3)coc2cc1OC	1.07	1.72
O=C(NCc1cc2cc(Cl)ccc2[nH]1)c1cccc(COc2cccc(Br)c2)c1	0.998	-0.0375
Cc1cc(NC(=O)CSc2nnc(CNC(=O)c3cccs3)o2)no1	0.766	-8.13
CCc1ccc(Sc2cc(C(=O)NCc3cccnc3)c3ccccc3n2)cc1	1.02	0.622
CCOc1cccc(-c2cc(C(=O)Nc3ccc(S(N)(=O)=O)cc3)c3ccccc3n2)c1	1.07	0.0954
CCCOc1ccc(C(O)(CC)CCN2CCCCC2)cc1 (configuration not stated)	1.03	0.681
Cc1ccc(C)c(CSc2nnc(Cc3cc(=O)[nH]c(=O)[nH]3)n2-c2ccccc2)c1	1	0.000718
Cc1ccc2c(c1)C(c1ccc(Cl)cc1Cl)CC(=O)N2 (configuration not stated)	1.05	0.455
COc1cccc(CNC(=O)CCc2cn(C)c3ccccc23)c1	0.983	-0.672
O=C(NC1CCCCCC1)C1CCN(C(=O)c2sccc2-n2cccc2)CC1	1.1	2.4
Cn1c(SCC(=O)Nc2ccccc2Cl)nnc1-c1cccnc1	1.04	0.701
O=C(CCc1ccccc1)Nc1nnc(Cc2ccc(Cl)c(Cl)c2)s1	1.02	0.0942

Overlap with the part before: 7 compounds; new compounds follow.
SMILES	CBX7 inh	CBX7 inh z-score
CCCOc1ccc(C(O)(CC)CCN2CCCCC2)cc1 (configuration not stated)	1.03	0.681
Cc1ccc(C)c(CSc2nnc(Cc3cc(=O)[nH]c(=O)[nH]3)n2-c2ccccc2)c1	1	0.000718
Cc1ccc2c(c1)C(c1ccc(Cl)cc1Cl)CC(=O)N2 (configuration not stated)	1.05	0.455
COc1cccc(CNC(=O)CCc2cn(C)c3ccccc23)c1	0.983	-0.672
O=C(NC1CCCCCC1)C1CCN(C(=O)c2sccc2-n2cccc2)CC1	1.1	2.4
Cn1c(SCC(=O)Nc2ccccc2Cl)nnc1-c1cccnc1	1.04	0.701
O=C(CCc1ccccc1)Nc1nnc(Cc2ccc(Cl)c(Cl)c2)s1	1.02	0.0942
O=C(Nc1cc(Cl)cc(Cl)c1)c1cnn2cccnc12	1.11	1.93
O=C(CN1C(=O)CSc2ccc(S(=O)(=O)N3CCCC3)cc21)NCCN1CCOCC1	0.997	-0.0812
CS(=O)(=O)c1ccc2nc(NC(=O)COc3ccc(Cl)cc3Cl)sc2c1	1.51	1.78
Cc1cc(C)cc(NC(=O)c2sc3ncn(Cc4ccccc4Cl)c(=O)c3c2C)c1	1.15	1.04
COc1ccc(CNC(=O)COc2cc(=O)n(C)c3ccccc23)cc1	1.05	0.765
CCc1ccc(-c2cn3nc(-c4ccccc4)cnc3n2)cc1	1.1	2.65
COc1cccc(N2CCN(C(=O)CCCn3c(=O)[nH]c4ccccc4c3=O)CC2)c1	0.882	-0.33
Cc1cccc(-n2nc3c(c2NC(=O)c2ccc(F)cc2)CSC3)c1C	1.02	0.326
O=C(CC1(O)C(=O)Nc2ccc(Cl)cc21)c1ccc2c(c1)CCCC2 (configuration not stated)	0.956	-1.55
Cc1cccc(C(=O)Nc2ccc3nc(N4CCCCC4)cc(C)c3c2)c1	1.08	0.512
O=C(NCCc1ccccc1)c1cc(Nc2ccccc2)nc2ccccc12	1.04	0.839
CCCc1ccc(-c2nc(-c3ccncc3)no2)cc1	1.07	0.166
CCOC(=O)c1ccc(Nc2c(C(=O)OCC)cnc3c(Cl)cccc23)cc1	0.98	-0.123
Cc1ccc(-c2nnc(Nc3ccccc3)c3ccccc23)cc1S(=O)(=O)N(C)C	1.05	1.35
CCOc1ccc(Cc2nc3cc(C(=O)O)ccc3[nH]c2=O)cc1	0.963	-0.39
Cc1ccccc1Cc1c(C)nc2c(C(=O)O)c[nH]n2c1=O	1.2	0.222
CCOc1ccc(NC(=O)c2sc3ncn(CC(=O)N4CCCCC4)c(=O)c3c2C)cc1	0.987	-0.0838
COc1ccc(-c2nc(CN3CCC(C(=O)NCc4cccnc4)CC3)c(C)o2)cc1OC	1	0.00773
Cc1ccc(NC(=O)c2cc(Cl)ccc2NC(=O)c2ccccc2)cc1	1.03	0.938
CCOc1ccc(NC(=O)CC2C(=O)N(c3ccc(OC)cc3)C(=O)N2CCC2=CCCCC2)cc1 (configuration not stated)	0.955	-1.81
Cc1nc2c(C(=O)NCCC3=CCCCC3)cnn2c(C)c1Cc1ccc(Cl)cc1	1.08	2.32
CCC(=O)N1CCc2cc(Br)cc(S(=O)(=O)N(C)c3ccc(OC)cc3OC)c21	0.94	-2.86
Cc1ccc(NC(=O)c2cnc3scc(C)n3c2=O)cc1C	1.06	2.12
Cc1ccc(C)c(CN2CCCN(C(=O)c3cc4c(s3)-c3ccccc3OC4)C2)c1	1.12	1.75
Cc1ccc(-c2noc(CCC(=O)Nc3ccc(C)cc3Cl)n2)cc1	1.01	0.184

Sorted by value in CBX7 inh z-score (rising): some entries from above.
canonical_smiles | CBX7 inh z-score
CCOc1ccc(NC(=O)c2sc3ncn(CC(=O)N4CCCCC4)c(=O)c3c2C)cc1 | -0.0838
Cc1ccc(C)c(CN2CCCN(C(=O)c3cc4c(s3)-c3ccccc3OC4)C2)c1 | 1.75
O=C(Nc1cc(Cl)cc(Cl)c1)c1cnn2cccnc12 | 1.93

New compounds follow
canonical_smiles | CBX7 inh | CBX7 inh z-score
O=C1CN(C(=O)c2ccccc2F)C(c2ccc(F)cc2)c2cc(Cl)ccc2N1 (configuration not stated) | 0.78 | -4
Clc1ccc(-c2nc3ccccn3c2Nc2ccc3c(c2)OCCO3)s1 | 1.18 | 1.86
O=C(NCc1cccnc1)c1cccc2c1C(=O)N(C1CCCCC1)C2 | 0.776 | -1.86
Cc1ccc(-c2ccc(CCC(=O)O)n2-c2ccc(Cl)cc2)cc1 | 1.09 | 2.68
O=C(Nc1ccccc1C(=O)NCCc1ccccc1)c1ccccc1Cl | 1.2 | 1.5
Cc1ccccc1-c1nc(CS(=O)(=O)CC(=O)NCCCN2CCOCC2)c(C)o1 | 0.95 | -0.898
Cc1ccc(-c2nnc(Nc3ccc(OC(F)(F)F)cc3)c3ccccc23)cc1S(=O)(=O)NC(C)C | 0.984 | -0.0733
COC(=O)c1ccc(OCC(O)Cn2cnc3cc(C)c(C)cc32)cc1 (configuration not stated) | 0.869 | -3.62
Cc1oc(-c2ccccc2F)nc1CS(=O)(=O)CC(=O)NC1CCCC(C)C1C (configuration not stated) | 0.989 | -0.199
OCCn1c(-c2ccc(-c3ccccc3)cc2)cn2c3ccccc3nc12 | 0.96 | -1.18
Nc1c2c(nc3ccccc13)N(c1ccc(Cl)c(Cl)c1)CC2 | 1.01 | 0.186
CC(C(=O)NC1CCCCC1)C1Sc2ccccc2N(Cc2cccc(Cl)c2)C1=O (configuration not stated) | 0.861 | -0.288
CCn1cc(C(=O)NCc2ccccc2Cl)c(=O)c2ccc(C)nc21 | 0.999 | -0.0121
Cc1cccc(N2C(=O)CC(N3CCN(Cc4ccc(Cl)cc4)CC3)C2=O)c1 (configuration not stated) | 0.997 | -0.131
Cc1ccc2c(c1)-c1c(cnn1CC(=O)N(C)CCC#N)CO2 | 0.953 | -0.873
CCCNC(=O)c1cc(-c2ccccc2OC)on1 | 1.11 | 0.64
CCN(CC)CCNC(=O)c1ccc2c(c1)N(Cc1ccccc1)C(=O)CS2 | 0.845 | -2.06
CN(c1ccc(F)cc1)S(=O)(=O)c1ccc2[nH]cc(C(=O)NCC3CCCO3)c(=O)c2c1 (configuration not stated) | 0.975 | -0.234
CC(C)c1ccc2oc(-c3ccc(Cl)c(NC(=O)Cc4ccccc4)c3)nc2c1 | 1.08 | 2.29
Cc1ccc(S(=O)(=O)c2nc(-c3cccc(C)c3)oc2NCc2ccccc2)cc1 | 0.841 | -0.996
CCN(CC)CCCNC(=O)c1cc(-c2ccc(Cl)c(Cl)c2)on1 | 0.839 | -1.64
COc1cccc(-n2c(Cc3cc(=O)[nH]c(=O)[nH]3)nnc2SCC(=O)c2ccc(Cl)cc2)c1 | 0.855 | -2.21
COCCNC(=O)C1CC(=O)N(c2ccc(OC)cc2)C1 (configuration not stated) | 0.969 | -0.042
CC(C)CN(CC(C)C)S(=O)(=O)c1ccc(C(=O)Nc2nnc(-c3ccc(Cl)s3)o2)cc1 | 0.863 | -1.54
CCOCCCNC(=O)c1c[nH]c2ccc(S(=O)(=O)N(C)c3cccc(C)c3)cc2c1=O | 1.07 | 0.837
Cc1cc(C)c(C#N)c(Nc2cc(Cl)ccc2Cl)n1 | 1.05 | 2.03
O=C(C1CC(=O)N(c2ccc(F)c(Cl)c2)C1)N1CCOCC1 (configuration not stated) | 0.975 | -0.499
CC(=O)Nn1c2ccccc2n2c(C(=O)c3cccs3)c(C)c(C(C)=O)c12 | 0.989 | -0.26
O=C(NCCCN1CCc2ccccc2C1)c1ccc2c(c1)N(Cc1ccccc1)CCS2 | 0.634 | -0.486
O=c1oc2ccccc2cc1-c1nc2ccccc2s1 | 1.11 | 3.35
Cc1ccc(C)c(-c2[nH]c(-c3ccc(C(=O)O)cc3)nc2-c2ccccc2)c1 | 0.842 | -2.45
COc1cc2c(C(=O)NCCCN3CC(C)CC(C)C3)cn(CC(C)C)c(=O)c2cc1OC (configuration not stated) | 1.08 | 0.658
Fc1ccc(CSc2nc(NCC3CCCO3)c3ccccc3n2)cc1 (configuration not stated) | 0.501 | -1.4
CCc1ccccc1NC(=O)c1nn2c(C(F)(F)F)cc(-c3ccccc3)nc2c1Br | 1.09 | 0.621
CCc1nnc(NC(=O)CN2C(=O)CSc3ccc(S(=O)(=O)N(CC)CC)cc32)s1 | 1.02 | 0.567
CCOc1ccc(-n2c(C)c3c(OCC)cccc(=O)c3c2C)cc1 | 1 | 0.128
CCOc1ccc2nc(N3CCCC(C(=O)N4CCN(Cc5ccccc5)CC4)C3)sc2c1 (configuration not stated) | 0.716 | -7.69
Cc1cccc2nc(NC(=O)c3ccc(Oc4ccccc4)cc3)sc12 | 0.926 | -0.297
Cc1cc(=O)n2nc(N3CCCC(C(=O)NCc4ccccc4)C3)sc2n1 (configuration not stated) | 1.11 | 1.04
O=C1CN(C(=O)C2CCCCC2)C(c2ccccc2)c2cc(Br)ccc2N1 (configuration not stated) | 1.06 | 0.232
CC(NC(=O)c1nn2c(C(F)(F)F)cc(-c3cccs3)nc2c1Cl)C1CC2CCC1C2 (configuration not stated) | 0.969 | -0.823
COc1ccc(-c2cc(C(F)(F)F)nc(NCCc3ccc(OC)c(OC)c3)n2)cc1 | 1.02 | 0.999
N#Cc1nc(COc2ccc(Cl)cc2)oc1NCc1ccc2c(c1)OCO2 | 0.908 | -4.01
CCCCCCOc1ccc(N2C(=O)CC(N3CCN(c4cccc(C(F)(F)F)c4)CC3)C2=O)cc1 (configuration not stated) | 0.976 | -0.371
Fc1ccccc1-c1nc(N2CCC(Cc3ccccc3)CC2)c2ccccc2n1 | 1.02 | 0.0335
COc1ccc2nc(NC(=O)Nc3ccc4c(c3)N(C)C(=O)CS4)sc2c1 | 0.913 | -2.32
CCc1ccc(NC(=O)C2CC(c3ccc(OC)c(OC)c3)=NO2)cc1 (configuration not stated) | 1.03 | 1.17
O=C1CCc2cc(S(=O)(=O)NC(C(=O)Nc3ccc(F)c(Cl)c3)c3ccccc3)ccc2N1 (configuration not stated) | 1 | -0.00194
CC1=Nc2cc(C(=O)NCc3ccc(Cl)cc3)ccc2Sc2ccc(Cl)cc21 | 0.86 | -2.25
Cc1ccc(NC(=O)CNC(=O)Cn2cnc3sc(C)c(C)c3c2=O)cc1F | 0.95 | -1.53
CCCCOc1ccc(C(=O)Nc2ccc(-c3nc4ncccc4o3)cc2)cc1 | 1 | 0.124
COc1cccc(-c2cc(C(F)(F)F)nc(-n3c(C)nc4ccccc43)n2)c1 | 0.986 | -0.415
O=C(CCn1nc(-c2ccc(Cl)cc2)c2ccccc2c1=O)Nc1cccc(Br)c1 | 0.966 | -1.02
O=S(=O)(NC1CCCCC1Nc1ccccc1)c1ccc(Cl)cc1 (configuration not stated) | 0.913 | -1.26
CC(=O)Nc1ncc(CN2CCC(c3ccccc3)CC2)s1 | 1.02&0.96 | 0.476&-0.645
O=C(Cn1c(SCc2ccccc2F)nc2ccncc21)NCC1CCCO1 (configuration not stated) | 1.05 | 2.21
COC(=O)CNC(c1ccccc1)c1cc(Br)ccc1NC(=O)c1ccc(Cl)cc1 (configuration not stated) | 1.24 | 1.78
CC(C)Oc1cccc(C(=O)Nc2ccc(-c3nc4ncccc4o3)cc2)c1 | 1.1 | 0.653
Cc1cc(N2CCC(C)CC2)nc2ccc(NC(=O)c3ccc(Cl)nc3)cc12 | 1.12 | 1.32

Only part of the results is shown (hit frequency here may not be typical).
